Screening data: PubChem BioAssay, National Center for Advancing Translational Sciences (NCATS)
RE007 growth inh: qHTS Assay for Inhibitors of the HIV-1 protein Vpr; S. pombe RE007 Vpr strain, BacTiter-Glo ATP luminescence, 24 h; control for the full effect not named in the record; Potency, µM (titrated, usually from 92.2 µM), without a hit: top-dose activity change, negative = less growth; 360,000 tested, 0.21% active; AID 651644, 2012; active = well fitted falling curve with a large enough effect; inconclusive = small, poorly fitted or top-dose-only effect; inactive = no such curve, though single readings can be large or run the other way;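 further: on the % scale 0 is the no-effect control and ±100 the full control effect; nearly all actives have a fitted effect of over 50% in size; the assay follows cell death caused by Vpr and the record does not say whether a fall means rescue or toxicity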
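Fission yeast RE007 carrying one integrated HIV-1 vpr copy, seeded at OD 0.01 in PMG+AL medium with 23 nL pinned compound. Grown 24 h at 30 degrees; viability read by BacTiter-Glo luminescence after 5 min.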
SARS PLpro yeast: qHTS of Yeast-based Assay for SARS-CoV PLP. S. cerevisiae expressing SARS-CoV PLpro, growth rescue; control for the full effect not named in the record. Potency, µM (doses to about 32.9 µM), for the others: at the highest dose activity, positive = growth rescue. 330,000 tested, 0.19% active; further: 0% is about no effect; nearly all actives have a fitted effect of over 55% in size; growth read by luminescence after 48 h
Cruzain Triton: qHTS Assay for Promiscuous and Specific Inhibitors of Cruzain (with detergent); 200,000 tested, 0.43% active; AID 1478, 2009; purified cruzain, Z-FR-AMC fluorescence, 0.01% Triton; Potency, µM, for the others: max response, negative = inhibition, usual class: inhibitors; active means well fitted curve in the direction sought with a large enough effect; inconclusive means small, poorly fitted or top-dose-only effect, or another doubt; inactive means no such curve, though single readings can be large; an effect the other way counts as inactive or inconclusive;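 further: plate controls were neutral wells for no effect and buffer without enzyme for full effect; nearly all actives have a fitted effect of over 40% in size; top concentration of the series not given in the record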
Target sequence (P25779 123-467 limits assumed): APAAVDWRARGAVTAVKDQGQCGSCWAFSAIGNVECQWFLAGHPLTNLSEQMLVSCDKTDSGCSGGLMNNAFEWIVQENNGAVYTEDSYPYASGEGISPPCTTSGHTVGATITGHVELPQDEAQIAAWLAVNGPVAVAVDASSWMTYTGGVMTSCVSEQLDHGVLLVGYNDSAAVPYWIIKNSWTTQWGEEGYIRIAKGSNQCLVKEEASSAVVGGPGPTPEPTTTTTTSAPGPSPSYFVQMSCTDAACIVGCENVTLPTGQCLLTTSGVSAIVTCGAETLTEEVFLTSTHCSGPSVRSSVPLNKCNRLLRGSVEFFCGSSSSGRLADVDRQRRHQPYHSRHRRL
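Compounds were screened in titration against cruzain (1.5 nM) with 0.01% Triton X-100 to counter colloidal aggregation. Activity was the AMC fluorescence increase over 60 s after adding 2 uM Z-FR-AMC at pH 5.5.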
MARV entry inh: qHTS for inhibitors of binding or entry into cells for Marburg Virus; Marburg virus pseudotyped entry inhibition, cell reporter; control for the full effect not named in the record; about a third of the inactives were read at about 46 µM; Potency, µM (series often up to 37.8 µM), for inactives: at the top dose activity change, negative = inhibition, usual class: inhibitors; 300,000 tested, 1.8% active; active = well fitted inhibition curve with a large enough effect; inconclusive = small, poorly fitted or top-dose-only effect, or effect the other way; inactive = flat fitted curve, though single readings scatter; tested in HEK293 cells; about a fifth of its hits are not listed in these tables; further: on the % scale 0 is the no-effect control and ±100 the full control effect; luciferase read-out
2A StopGo: High Throughput Screening for Foot and Mouth Disease Virus Antivirals | 410,000 tested, 1.2% active | human cells with a luciferase reporter of 2A StopGo recoding; control for the full effect not named in the record | Potency, µM (series often up to 57.9 µM), for the others: at the highest dose signal change, negative = less light | AID 1159524, 2015; active = well fitted falling curve with a large enough effect; inconclusive = small, poorly fitted or top-dose-only effect; inactive = no such curve, though single readings can be large or run the other way; tested in HEK293T cells; further: on the % scale 0 is the no-effect control and ±100 the full control effect; nearly all actives have a fitted effect of over 45% in size; luciferase light after 4 h
Lassa entry inh: qHTS for Inhibitors of binding or entry into cells for Lassa Virus; AID 540256, 2011; Potency, µM (highest dose often 37.9 µM), without a hit: at the highest dose activity change, negative = inhibition, actives largely listed as inhibitors; Lassa virus pseudotype entry inhibition, cell reporter; control for the full effect not named in the record; 300,000 tested, 1.2% active; active means well fitted inhibition curve with a large enough effect; inconclusive means small, poorly fitted or top-dose-only effect, or effect the other way; inactive means flat fitted curve, though single readings scatter; tested in HEK293 cells; further: on the % scale 0 is the no-effect control and ±100 the full control effect; nearly all actives have a fitted effect of over 50% in size; luciferase read-out
Cruzain inh noDet: qHTS Assay for Promiscuous and Specific Inhibitors of Cruzain (without detergent); Cruzipain (Trypanosoma cruzi), P25779; purified cruzain, Z-FR-AMC fluorescence, no detergent; Potency, µM, inactives show max response, negative = inhibition, most hits filed as inhibitors; 200,000 tested, 2.3% active; AID 1476, 2009; active means well fitted curve in the direction sought with a large enough effect; inconclusive means small, poorly fitted or top-dose-only effect, or another doubt; inactive means no such curve, though single readings can be large; an effect the other way counts as inactive or inconclusive;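 further: plate controls were enzyme without inhibitor for no effect and buffer without enzyme for full effect; nearly all actives have a fitted effect of over 40% in size; top concentration of the series not given in the record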
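Detergent-free condition (0.00005% Triton X-100) in acetate buffer pH 5.5 with DTT. 1.5 nM enzyme and compound were pre-mixed 15 min, then 2 uM Z-FR-AMC substrate added; reaction progress from fluorescence change between first and third reads (60 s).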
NS1 function inh: qHTS Assay for Inhibitors of Influenza NS1 Protein Function | 270,000 tested, 0.4% active | Potency, µM (titrated, usually from 46.1 µM), for inactives: at the highest dose activity, positive = more growth | S. cerevisiae slowed by influenza A NS1, growth recovery by OD600; further: actives are rising curves; nearly all actives have a fitted effect of over 50% in size
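In this qHTS, NS1 from influenza A is expressed in budding yeast, where it slows growth. Cells are switched from glucose to 2% galactose medium (pH 6.0, -URA), treated with compound, and growth recovery is read at OD600.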
* = called active by the depositor; ? = inconclusive; . = not tested or not shown; & = joins results of further samples; [ ] = dose if it differs, or a comment. Unless noted, the call rests on the fitted dose curve; in most records, active means well fitted rising curve with a large enough effect; inconclusive means small, poorly fitted or top-dose-only effect; inactive means no such curve, though single readings can be large or run the other way. Potency means the concentration at half of the fitted maximal effect.

SMILES	RE007 growth inh	SARS PLpro yeast	Cruzain Triton	MARV entry inh	2A StopGo	Lassa entry inh	Cruzain inh noDet	NS1 function inh
CCN1CCN(Cc2ccc(NC(=O)c3cc(NC(=O)c4cc(C)on4)cc(OC)c3)cc2C(F)(F)F)CC1	10%&-12%	-7%	.	.	?	.	.	-15%
O=C(COC(=O)c1cc(=O)[nH]c2ccccc12)Nc1nc(-c2ccccc2)cs1	4%	1%	.	.	27%	.	.	-1%
Cn1c(=O)c2cc(S(=O)(=O)Nc3cc(C(=O)O)cc(C(=O)O)c3)ccc2n(C)c1=O	6%	-2%	.	2%	-11%	-4%	.	.
CC(Sc1ncn[nH]1)C(=O)Nc1ccc(Cl)cn1 (stereo unspecified)	-4%	-1%	.	-31%[46.1 µM]	-7%	22%	.	.
COc1ccc(C(=O)O/N=C(\N)c2ccc(OC)c(OC)c2)c(OC)c1	-18%	-4%	.	1%	16%	.	.	-8%
CCCCC(CC)CNC(=O)CN1C(=O)CSc2ccc(S(=O)(=O)N3CCOCC3)cc21 (stereo unspecified)	.	.	0.8%	.	7%	-16%[46.1 µM]	-5%	.
CCCOC(=O)c1[nH]c2c(c1C)C(=O)CC(c1ccc(OC)c(OC)c1)C2 (stereo unspecified)	9%	22%	0.2%	-9%&10%	-22%	-8%&13%	-10%	0%
CSc1ccccc1NC(=S)N/N=C/c1cccn1Cc1ccc(F)cc1	-10%	13%	.	?	-29%	?	.	.
COc1cc(OC)c(-c2nc(-c3ccncc3)no2)cc1OC	-7%	10%	.	.	-8%	.	.	-7%
N[C@@H](Cc1ccccc1)C(=O)N1CCC(C(=O)N[C@@H](Cc2c[nH]c3ccccc23)C(=O)O)CC1	34%	-2%	.	7%[46.1 µM]	-11%	12%[46.1 µM]	.	3%
CCN(CC)CCn1c(=N)n(CC(O)COc2ccccc2C)c2ccccc21 (stereo unspecified)	.	.	-1.5%	3.2µM*	0%	?	8%	.
COc1ccc(NC(=O)c2cccs2)cc1NC(=O)c1ccco1	14%	-13%	-3.6%	5%[46.1 µM]	2%	-13%	6%	-16%
CNC(=O)n1cc(C)c(-c2cccs2)n1	-17%	0%	.	20%	7%	9%	.	0%
Cc1ccc(N2CC(C(=O)Nc3ccc(S(=O)(=O)N4CCOCC4)cc3)CC2=O)cc1Cl (stereo unspecified)	-30%	-1%	.	17%	-17%	-26%	.	.
O=C(c1ccc(F)cc1)N(Cc1ccccc1)C1CCS(=O)(=O)C1 (stereo unspecified)	-1%	-2%	-1.2%	-17%	-20%	?	5%	-1%
CCOC(=O)Cc1[nH]nc2c1C(c1ccoc1)C(C#N)=C(N)O2 (stereo unspecified)	3%	-5%	-1.4%	0%	.	-12%	-17%	7%
Cc1ccc(SC[C@H](Cc2ccccc2)N2CC[C@@H](C)CCC2=O)cc1	20%	-10%	.	.	20%	.	.	-29%
Cc1cc(C(=O)OCC(=O)NC(C)C)c(C)o1	8%	4%	2.6%	-1%[46.1 µM]	2%	3%	7%	3%
COC(=O)c1c(-c2cccs2)csc1NC(=O)c1ccc(C(C)C)cc1	.	.	-5.9%	9%[46.1 µM]	0%	-7%[46.1 µM]	-11%	.
COc1ccccc1C1C(C#N)=C(N)Oc2cc(C)n(CCCn3ccnc3)c(=O)c21 (stereo unspecified)	-2%	3%	-1.9%	-13%	-5%	17%	-6%	-5%
CN(CC(=O)Nc1ccc(Cl)c(C(F)(F)F)c1)C(=O)Cc1ccsc1	-1%	0%	.	?	?	?	.	.
COc1ccccc1NC(=O)N(Cc1cccs1)Cc1cc2cc3c(cc2[nH]c1=O)OCO3	3%	0%	-4.9%	?	-19%	1%	-8%	16%
Cc1ccc(NC(=O)c2csnn2)c(C)c1	-11%	10%	-1.9%	1%	21%	25%	-10%	-1%
CCCCNC(=O)NNC(=O)c1ccco1	30%	2%	-1.2%	6%	-1%	7%	11%	-31%
NC(=O)c1cccc2c1-c1ccccc1/C2=N/NC(N)=S	-9%	1%	.	.	-9%	.	.	4%
Later entries:
SMILES	RE007 growth inh	SARS PLpro yeast	Cruzain Triton	MARV entry inh	2A StopGo	Lassa entry inh	Cruzain inh noDet	NS1 function inh
COc1ccc(/C=N/NC(=O)c2csc(-n3nc(C)cc3C(F)(F)F)n2)cc1	19%	-1%	-1.1%	?	2%	-28%	?	15%
CCOC(=O)N1CCN(c2nc3ccccc3nc2C(C#N)S(=O)(=O)c2ccc(C)cc2)CC1 (stereo unspecified)	14%	-1%	-8.8%	14%	?	?	?	-12%
CCN(CC)CCC(c1ccc2c(c1)OCO2)c1c(OC)cc(OC)c2ccc(=O)oc12 (stereo unspecified)	-8%	0%	.	.	-4%	.	.	-1%
Cc1cs/c(=N\N=C2CCCCC2)n1Cc1ccco1	3%	0%	.	3%[46.1 µM]	-24%	-18%[46.1 µM]	.	.
CCOc1ccc(-n2c(SCC(=O)Nc3ccc4c(c3)OCCO4)nc3c([nH]c4ccccc43)c2=O)cc1	.	.	1.3%	.	-21%	13%[46.1 µM]	?	.
CCOC(=O)N/N=C(\C)c1ccc(-n2cnnn2)cc1	-11%	-8%	.	-5%[14.2 µM]	-7%	2%	.	.
COc1ccc(C)c2sc(N(CCN(C)C)C(=O)c3ccc4ccccc4c3)nc12	3%	-28%	.	.	-15%	.	.	-36%
COC(=O)CNC(=O)C(C)NC(=O)OCc1ccccc1 (stereo unspecified)	-14%	1%	9.2%	6%[46.1 µM]	17%	?	-7%	-8%
N/C(Cc1nc(-c2ccc(Cl)cc2)cs1)=N/O	-3%	0%	.	6%	2%	3%	.	0%
O=C(NCc1ccc2c(c1)OCO2)c1cccnc1	3%	-14%	3.1%	?	-7%	?	-9%	1%
CCOc1ccc(NC(=O)C(=O)NCCc2csc(-c3ccc(F)cc3)n2)cc1	.	.	-0.9%	.	?	-4%[46.1 µM]	0%	.
CN(CCOc1ccccc1)CC(=O)Nc1cccc(Br)c1	-17%	-9%	.	22%[46.1 µM]	-14%	3%	.	2%
CCOC(=O)CSc1nc(=O)n2cc(C)ccc2n1	7%	1%	.	22%[46.1 µM]	17%	5%	.	3%
COc1ccc(N2CCN(C(=O)c3ccccc3)CC2)c([N+](=O)[O-])c1	1%	-2%	.	-1%[46.1 µM]	-12%	-3%	.	0%
CCOc1ccc(C2C(C(C)=O)=C(O)C(=O)N2CCc2c[nH]c3ccccc23)cc1 (stereo unspecified)	-10%	2%	.	.	17%	.	.	4%
CSc1nnc(NC(=O)c2ccc3c(c2)OCO3)s1	-10%	-4%	.	.	?	?	.	-4%
COc1cc2[nH]c(=S)n(C3CC3)c(=O)c2cc1OC	17%	-1%	.	-19%	-7%	-11%	.	.
O=C(Nc1ccc(C(=O)N2CCN(c3cccc(Cl)c3)CC2)cc1)c1nsc2ccccc12	.	.	-0.6%	.	0%	?	10µM*	.
CC1=NN(c2nc(C)cc(C)n2)C(=O)C1CCC(C)C (stereo unspecified)	-7%	9%	-2.8%	8%	10%	4%	29%	6%
O=C(NC1CCCC1)C1CCN(S(=O)(=O)c2cccc3cccnc23)CC1	4%	3%	-0.9%	-1%	-4%	-2%	4%	-11%
COc1ccc(-c2noc(CCC(=O)NCCN(C)Cc3ccccc3)n2)cc1	-5%	.	-2.0%	-16%	-21%	-9%	-9%	0%
COc1cccc(C(=O)CN2CCN(S(=O)(=O)c3ccc(Br)cc3)CC2)c1	8%	4%	-1.9%	0%[46.1 µM]	-8%	7%	-12%	-1%
CCOc1ccc(NC(=O)C/C(C)=N/NC(=O)Cc2cccs2)cc1	-18%	-4%	.	?	10%	23%[46.1 µM]	.	3%
CCN(CC)CCCN1C(=O)C2C(C(=O)Nc3ccc(C(C)C)cc3)C3C=CC2(O3)C1C(=O)NC1CCCCC1 (stereo unspecified)	2%	4%	.	7%[46.1 µM]	9%	1%[46.1 µM]	.	-12%
CC12CCC(C(=O)NCc3ccccc3Cl)(CC1=O)C2(C)C (stereo unspecified)	1%	1%	.	18%[46.1 µM]	11%	-8%	.	2%
Further compounds follow:
SMILES	RE007 growth inh	SARS PLpro yeast	Cruzain Triton	MARV entry inh	2A StopGo	Lassa entry inh	Cruzain inh noDet	NS1 function inh
N#CCNC1CC(=O)N(c2ccc(F)cc2)C1=O (stereo unspecified)	25µM*	-21%	.	-11%[46.1 µM]	-17%	28%[46.1 µM]	.	-8%
Cc1onc(-c2ccccc2)c1C(=O)NNC(=S)NC(=O)c1ccc(F)cc1	6%	-32%	2.5%	?	0%	?	17%	-35%
CSc1cccc(NS(=O)(=O)c2cn(C)cn2)c1	6%	1%	.	.	4%	.	.	9%
CC(=O)N1c2ccc(S(=O)(=O)N3CCC(C(=O)Nc4cccc(F)c4)CC3)cc2CC1C (stereo unspecified)	5%	-1%	.	-2%[46.1 µM]	?	4%[46.1 µM]	.	3%
Clc1cccc(OCCCN2CCCC2)c1Cl	-2%	-4%	-4.2%	?	1%	-15%	-6%	6%
COc1ccc(CONS(=O)(=O)c2ccc(NC(C)=O)cc2)cc1Cl	-11%	0%	-1.4%	-8%	-15%	-51%[14.3 µM]	-3%	7%
COc1ccc2c(c1)S(=O)(=O)c1ccccc1N2	6%	-5%	.	8%[46.1 µM]	10%	28%[46.1 µM]	.	1%
COc1ccc(NC(=O)CSc2nnc(-c3ccccc3Cl)n2Cc2ccco2)c(OC)c1	18%	17%	0.5%	?	-23%	5%	-1%	-22%
CCN(CC)c1ccc(NC(=O)COC(=O)CCC(=O)c2ccc(F)cc2)cc1	-5%	9%	-15%	-1%	-2%	-3%	2%	-6%
CCOc1ccc(N(C(=O)c2ccc(C)cc2)S(=O)(=O)c2ccc3c(c2)n(C)c(=O)n3C)cc1	.	.	-3.6%	14%[46.1 µM]	-12%	?	?	.
CCCS(=O)(=O)N1CCN(Cc2ccco2)CC1	-5%	8%	7.1%	5%[46.1 µM]	-8%	1%	1%	4%

Not a hit list. About 4.7% of those tested had a hit in this group.
